# Bioassay records (PubChem)
# D2 ag: Beta-Arrestin HTS for Positive Allosteric Modulators of the Human D2 Dopamine Receptor: Agonists; activation, % (test concentration not listed); DiscoveRx PathHunter D2 beta-arrestin, luminescence, 90 min; 100% = 57 uM dopamine signal; hit rate 0.084% among 360,000; in the data active = activation above about 40%; inconclusive = about 15% to 40%; inactive = below about 15%; also: compound concentration not given in the record; the text of the record calls up to 30% inactive
#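 Agonist mode: compounds alone added to overnight-plated D2 PathHunter cells for 90 min at 37 C, with 57 uM final dopamine (EC100) defining full response. Beta-arrestin recruitment detected by chemiluminescent reagent, read after 1 h at ambient temperature.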
# CtBP-E1A blk: qHTS Assay for Inhibitors of the CtBP/E1A Interaction; activity change, % (no concentration beside the values); hit rate 0.49% among 340,000; AlphaScreen GST-E1A/His-CtBP binding, 1536-well; active compounds read low; control for the full effect not named in the record; CtBP / adenovirus E1A interaction (AlphaScreen); in the data active means activity change below about -65%; inconclusive means about -30% to -65%; inactive means above about -30%; also: % is scaled to controls: 0 for no effect and ±100 for the full control effect
#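 AlphaScreen with 125 nM GST-E1A and 125 nM His-CtBP (5X stocks) in Tris pH 8.0, 300 mM NaCl, BSA, Tween 20, TCEP. Compounds preincubated 2 h at 37 deg C, then glutathione donor/nickel acceptor beads added for 1 h at 37 deg C in dark.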
# gsp antag: qHTS for Antagonists of gsp, the Etiologic Mutation Responsible for Fibrous Dysplasia/McCune-Albright Syndrome: qHTS | gsp-mutant cells, cAMP HTRF, 30 min; control for the full effect not named in the record | hit rate 0.4% among 340,000 | Potency, µM (highest dose often 76.9 µM), inactives show at the top dose activity change, negative = inhibition, actives largely listed as inhibitors; active = falling curve of any shape with a large fitted effect; inconclusive = falling curve, mostly with a smaller effect; inactive = flat or rising curve; cell line not stated here;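 also: intracellular cAMP measured with PDE inhibitor Ro 20-1724 present during compound exposure; potency is read from the fitted curve at half-maximal effect; % is scaled to controls: 0 for no effect and ±100 for the full control effect; nearly all actives have a fitted effect of over 65% in size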
#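 HTRF cAMP read-out (cAMP-d2 plus anti-cAMP antibody-K in lysis buffer, 30 min RT). Before lysis, cells are exposed to compounds with […] for 30 min at 37C in DPBS containing Ca/Mg, BSA and Tween 20.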
# D2 PAM: Beta-Arrestin HTS for Positive Allosteric Modulators of the Human D2 Dopamine Receptor: Potentiators | D(2) dopamine receptor (Homo sapiens), P14416 | DiscoveRx D2 beta-arrestin cells, luminescence, 90 min; 100% = 57 uM dopamine signal | potentiation, % (test concentration not listed) | hit rate 0.23% among 360,000 | AID 624464, 2012; active = potentiation of 50% or more; inconclusive = 30% to 50%; inactive = 30% or less;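 also: compound concentration not given in the record; tested on top of an EC20 dose of dopamine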
#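 PathHunter beta-arrestin assay in DiscoveRx D2 cells. Compounds were added with an EC20 of dopamine (50 nM final) for 90 min at 37 deg C. Luminescence was read 1 h after detection reagent, with 57 uM dopamine as the EC100 control.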
# Six1-Eya2 blk: qHTS Assay for Inhibitors of the Six1/Eya2 Interaction; AlphaScreen GST-Six1/His-Eya2 binding, biochemical; active compounds read low; control for the full effect not named in the record; Homeobox protein SIX1 (Homo sapiens) + Protein phosphatase EYA2 (Homo sapiens), …; AID 651725, 2012; activity change, % (test concentration not listed); hit rate 0.56% among 360,000; in the data active = activity change below about -65%; inconclusive = about -30% to -65%; inactive = above about -30%; also: % is scaled to controls: 0 for no effect and ±100 for the full control effect
# Target sequence (O00167 whole entry, looked up): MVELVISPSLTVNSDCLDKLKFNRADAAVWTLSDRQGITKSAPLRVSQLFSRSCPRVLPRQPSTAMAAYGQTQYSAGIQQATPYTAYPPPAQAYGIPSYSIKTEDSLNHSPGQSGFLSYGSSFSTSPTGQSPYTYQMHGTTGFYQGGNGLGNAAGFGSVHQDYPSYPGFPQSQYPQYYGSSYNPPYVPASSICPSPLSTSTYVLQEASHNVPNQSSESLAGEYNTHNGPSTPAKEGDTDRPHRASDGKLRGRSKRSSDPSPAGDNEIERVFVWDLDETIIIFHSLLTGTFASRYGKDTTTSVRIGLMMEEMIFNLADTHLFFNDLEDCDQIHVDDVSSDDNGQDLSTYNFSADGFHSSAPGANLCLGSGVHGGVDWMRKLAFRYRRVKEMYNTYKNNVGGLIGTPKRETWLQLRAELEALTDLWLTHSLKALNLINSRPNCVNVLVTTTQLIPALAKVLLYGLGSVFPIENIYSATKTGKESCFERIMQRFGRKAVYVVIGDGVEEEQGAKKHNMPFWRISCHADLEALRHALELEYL
# Target sequence (Q15475 whole entry, looked up): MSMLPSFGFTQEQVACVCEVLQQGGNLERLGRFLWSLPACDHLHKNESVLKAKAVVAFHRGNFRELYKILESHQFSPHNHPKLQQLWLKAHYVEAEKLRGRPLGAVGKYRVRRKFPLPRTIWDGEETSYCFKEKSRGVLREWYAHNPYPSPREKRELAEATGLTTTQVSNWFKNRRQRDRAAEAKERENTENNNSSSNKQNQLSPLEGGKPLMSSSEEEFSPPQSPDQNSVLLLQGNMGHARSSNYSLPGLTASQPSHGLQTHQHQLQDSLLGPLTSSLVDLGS
#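 Compounds are tested against tagged Six1 and Eya2 proteins bridged by glutathione donor and nickel acceptor beads; after a one-hour incubation at 37 °C without light, AlphaScreen emission is recorded.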
# gsp ag: qHTS for Agonist of gsp, the Etiologic Mutation Responsible for Fibrous Dysplasia/McCune-Albright Syndrome: qHTS. gsp mutant cells, cAMP HTRF, 30 min; control for the full effect not named in the record. Potency, µM (series often up to 76.9 µM), for the others: at the highest dose activation (cAMP increase), actives largely listed as activators. hit rate 0.13% among 340,000. AID 624287, 2012; active = well fitted activation curve with a large enough effect; inconclusive = small, poorly fitted or top-dose-only effect, or another doubt; inactive = no such curve, though single readings can be large or run the other way; cell line not stated here;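 also: phosphodiesterase inhibitor Ro 20-1724 added with compounds to block cAMP breakdown; potency is read from the fitted curve at half-maximal effect; nearly all actives have a fitted effect of over 60% in size; about a fifth of the inactives were tested at one dose only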
#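 Cells in DMEM/10% FBS with G418 were pretreated with compounds in DMSO plus […] (300 uM stock) for 30 min at 37C. cAMP was measured by HTRF (cAMP-d2 plus anti-cAMP antibody-K) after 30 min at room temperature.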
# The depositor's hits bear a star; ? = inconclusive; · = not tested or not shown; [ ] = remark or other dose. Random draw from the library, and some 1.4% of all compounds hit somewhere here.
D2 ag,CtBP-E1A blk,gsp antag,D2 PAM,Six1-Eya2 blk,gsp ag,SMILES
-2.4,-7,15%,-6,2,-40%,CCC(Oc1ccccc1)C(=O)Nc1nc2ccccc2[nH]1 (stereo not given)
-1.1,6,-8%,-12,-9,-40%[inhibitor],O=C(CSc1ccccc1)Nc1ccc(NC(=O)c2ccco2)cc1
5.9,-12,-2%,·,8,·,CCN(C[C@H]1N[C@@](Cc2ccccc2)(C(=O)OC)[C@H]2C(=O)N(C)C(=O)[C@@H]12)S(=O)(=O)c1ccccc1
-5.7,-2,4%,-8,-3,-30%[inhibitor],CC(Sc1ccccc1)C(=O)NCC(c1ccco1)N1CCCCC1 (stereo not given)
-4.7,14,?,-3,5,?,CSc1nc(N)c(C#N)c(-c2ccc(Cl)cc2)c1C#N
4.1,·,-24%,-4,-18,-11%,COCCn1c(C)c(C)c2c(NCCc3ccccc3)ncnc21
2.8,10,-12%,4,3,-32%[inhibitor],O=C(CSc1n[nH]c(-c2ccccc2)n1)Nc1ccccc1O
-6.8,7,·,1,7,-26%,CC1=C(C(=O)N(C)C)CC(CC(=O)NC2CCCCC2)C(=O)N1CCCN1CCCC1=O (stereo not given)
-1.7,1,·,-16,2,18%,CCOc1ccc(NC(=O)CN(C)C2=NS(=O)(=O)c3ccccc32)cc1
-3.8,33,-8%,-5,27,11%,O=C(Oc1ccc2c(c1)OCO2)c1ccc(F)cc1Cl
-2.8,-2,14%,-17,1,17%,COC(=O)c1ccc(Cn2nc(C)c(Cl)c2C)o1
-1.4,4,11%,-5,-9,4%[15.4 µM],CSCCC(NC(N)=O)C(=O)Nc1ccc(F)c(Cl)c1 (stereo not given)
-0.1,9,3%,-6,2,-2%,CCOCCCNC(=O)CCS(=O)(=O)Cc1ccc(C)cc1
-0.6,2,-20%,-13,-2,25%,Cc1cc(C)c2nc(N3CCCN(C(=O)c4ccco4)CC3)c(C#N)cc2c1
-3.6,-6,-11%,-4,-9,7%[15.4 µM],O=C(c1cc(Sc2ccc(Cl)cc2)nc2ccccc12)N1CCN(c2ccccn2)CC1
3.3,·,-25%,-1,1,-40%[inhibitor],CCC/C(=C1/c2ccccc2C(=O)N1c1ccccc1)c1ccc2c(c1)OCO2
-3.7,·,-3%,2,-2,-28%,CCOCCCNC(=O)Cn1cnc2c(cnn2-c2ccc(F)cc2)c1=O
-1.3,1,5%,0,-3,24%,Cc1cc(C(=O)COC(=O)COc2ccccc2C#N)c(C)n1CC1CCCO1 (stereo not given)
-1.7,6,12%,9,2,29%,Cc1ccc(NC(=O)CCC(=O)c2cccs2)c(Br)c1
-8.8,-1,7%,-37,-2,?,C=CCNCCOCCOc1ccc(Cl)cc1C(C)(C)C
2.5,1,-28%,9,-19,4%[15.4 µM],COc1ccc(OC)c(S(=O)(=O)N2CCC(C(=O)N3CCN(c4ccc(F)cc4)CC3)CC2)c1
-8.8,-5,7%,-10,-6,-4%,CN(C)CCNc1nc2sc3c(c2c(=O)n1Cc1ccccc1)CCCCC3
-2.0,5,0%,-17,-1,-6%,Cc1c(NC(=O)C(C)OC(=O)CNC(=O)c2ccccc2)c(=O)n(-c2ccccc2)n1C (stereo not given)
3.3,7,5%,-5,0,8%,C/C=C/Cn1c(Br)nc2c1c(=O)n(C)c(=O)n2C
0.2,6,1%,-10,3,8%[15.4 µM],Cc1ccccc1OCCCC(=O)NC1CCCCC1
-19,-4,-3%,-25,3,32%,COc1ccc(S(=O)(=O)N2CCCCC2)cc1NC(=O)C1CSC2(C)CCC(=O)N12 (stereo not given)
7.2,4,-22%,0,-7,0%[15.4 µM],CCSc1ccc(-c2cccc([N+](=O)[O-])c2)nn1
-3.1,-2,-2%,-5,3,33%,O=C(c1ccc(S(=O)(=O)N2CCOCC2)cc1)N1CCN(C2=NS(=O)(=O)c3ccccc32)CC1
1.3,-16,-14%,-18,-2,-21%[15.4 µM],CC(NC(=O)COC(=O)CNC(=O)c1ccc(-c2ccccc2)cc1)c1ccccc1 (stereo not given)
-4.2,1,3%,4,-9,0%,O=C(COC(=O)c1cc(S(=O)(=O)N2CCOCC2)ccc1F)Nc1c(Cl)cccc1C(F)(F)F
-1.0,-2,1%,-9,-1,-27%,CCN(CC(=O)NC1CCCCCC1)S(=O)(=O)c1ccccc1
0.9,?,-6%,-4,-67*,7%[15.4 µM],O=[N+]([O-])c1ccccc1Nc1ccccc1
0.9,-1,-7%,-10,9,2%,C=CCC1(O)C(=O)Nc2ccccc21 (stereo not given)
-3.9,9,?,-11,6,16%,C/C(=N\NC(=O)c1cccc(Br)c1)c1ccc(Br)cc1
-3.6,-2,-5%,5,-4,6%,COc1ccc(NC(=O)CSc2nccn2Cc2ccco2)c(OC)c1
0.7,2,5%,1,-2,24%,CC1Cn2c(nnc2-c2cccc(Cl)c2)S1 (stereo not given)

# Marked active in Six1-Eya2 blk, among the entries above:
D2 ag,CtBP-E1A blk,gsp antag,D2 PAM,Six1-Eya2 blk,gsp ag,SMILES
0.9,?,-6%,-4,-67*,7%[15.4 µM],O=[N+]([O-])c1ccccc1Nc1ccccc1

# Ordered by value in gsp antag (falling): 4 of the compounds above
D2 ag,CtBP-E1A blk,gsp antag,D2 PAM,Six1-Eya2 blk,gsp ag,SMILES
0.2,6,1%,-10,3,8%[15.4 µM],Cc1ccccc1OCCCC(=O)NC1CCCCC1
-19,-4,-3%,-25,3,32%,COc1ccc(S(=O)(=O)N2CCCCC2)cc1NC(=O)C1CSC2(C)CCC(=O)N12 (stereo not given)
0.9,?,-6%,-4,-67*,7%[15.4 µM],O=[N+]([O-])c1ccccc1Nc1ccccc1
7.2,4,-22%,0,-7,0%[15.4 µM],CCSc1ccc(-c2cccc([N+](=O)[O-])c2)nn1

# Further entries
D2 ag,CtBP-E1A blk,gsp antag,D2 PAM,Six1-Eya2 blk,gsp ag,SMILES
1.5,·,6%,-29,9,11%,Cc1cccc(NC(=S)NCCc2ccc(Cl)cc2)c1C
-2.3,-8,9%,-56,-7,-9%[15.4 µM],Cc1csc(C)[n+]1CC(=O)c1ccccc1
-3.2,1,8%,-15,12,13%,CCOC(=O)N1CCC(N2Cc3cccc(C(=O)N4CC(C)CC(C)C4)c3C2=O)CC1 (stereo not given)
-1.9,0,-7%,-2,-2,?,CCOC(=O)c1sc(/N=C/N(C)C)c(C(=O)OCC)c1C
-0.5,-5,13%,-13,10,11%,Cn1nccc1C(=O)N1CCOCC1
-3.7,6,6%,-7,-1,5%,O=C(NC(Cc1c[nH]c2ccccc12)C(=O)O)c1ccco1 (stereo not given)
-5.0,2,·,-4,0,·,COc1ccccc1C(O)c1ncc(-c2ccccc2C)[nH]1 (stereo not given)
-4.5,-10,0%,-3,4,·,OC[C@H]1O[C@@](CO)(O[C@H]2O[C@H](CO)[C@@H](O)[C@H](O)[C@H]2O)[C@@H](O[C@H]2O[C@H](CO)[C@@H](O)[C@H](O)[C@H]2O)[C@@H]1O
-0.8,4,6%,-16,-1,29%,CCc1ccc(NC(=S)N2CCCC2)cc1
-2.9,5,4%,4,-12,-18%[15.4 µM],O=c1[nH][nH]c(-c2ccccc2O)c1C(C[N+](=O)[O-])c1ccc(Br)cc1 (stereo not given)
-0.5,4,7%,-24,11,-6%,COc1ccc(OC)c(NC(=S)NCc2cccnc2)c1
0.2,·,-4%,-24,9,-12%,Cc1cc(C(=O)NC(C)C2CC2)c(Cl)cc1Cl (stereo not given)

# Copied from the list:
# CCc1ccc(NC(=S)N2CCCC2)cc1 – D2 PAM: -16
# COc1ccccc1C(O)c1ncc(-c2ccccc2C)[nH]1 (stereo not given) – D2 PAM: -4

# Remaining list, next part
D2 ag,CtBP-E1A blk,gsp antag,D2 PAM,Six1-Eya2 blk,gsp ag,SMILES
-5.2,-3,-13%,-1,15,23%[15.4 µM],CCc1nnc(NC(=O)c2ccc(-c3ccccc3F)o2)s1
4.0,-18,-10%,-1,-15,-1%,CCOC(=O)N1CCC(NC(=O)c2ccc3c(c2)sc2nc(-c4ccccc4)cn23)CC1
0.2,2,-14%,-4,0,2%,COc1cccc(CN(C(=O)c2ccc([N+](=O)[O-])cc2)C2CCS(=O)(=O)C2)c1 (stereo not given)
1.8,-5,8%,9,6,1%,Cc1ccsc1C(=O)N(C)CC(=O)Nc1ccccc1Br
-1.0,12,1%,1,-3,11%,CCOc1cc(NC(=S)NCCCN(C)C)c(OCC)cc1NC(=O)C1CC1
3.0,6,10%,-2,3,13%[15.4 µM],COc1ccc(C2C3=C(CC(C)(C)CC3=O)Oc3ncn4nc(-c5cccnc5)nc4c32)cc1 (stereo not given)
0.9,-20,-2%,-5,-15,-27%,O=C(c1ccc(Cl)s1)N1CCN(S(=O)(=O)c2ccc(Cl)cc2)CC1
-0.2,0,-22%,5,-8,-7%[15.4 µM],C/C(=N\NC(=O)C1(C)CC1(Br)Br)c1ccc(NC(=O)c2ccc(C)o2)cc1 (stereo not given)
2.9,-12,-2%,13,-20,-2%[15.4 µM],O=c1[nH]c(/C=C2\C=Nc3ccccc32)c(O)n1Cc1ccccc1F
-3.6,-1,10%,-3,-2,-14%[15.4 µM],CC(=O)Nc1nc(C(F)(F)F)cs1
-1.4,5,15%,-5,6,-11%[15.4 µM],O=C(NCc1ccccc1)C1CCN(C(=O)Cc2ccccc2)CC1
0.7,23,-15%,·,27,·,C[C@@H]1C(c2ccccc2)=NN(c2ccccc2)[C@H]1C(=O)N1CCOC1=O
-2.7,-26,·,2,11,?,C[C@@H]1CN([C@H](C)CO)C(=O)CCCn2nncc2CO[C@H]1CN(C)S(=O)(=O)c1ccc(F)cc1
-2.1,0,-1%,-22,2,18%[15.4 µM],CCc1cc(CNC(=O)c2ccc(OC)c(OC3CCN(C(C)C)CC3)c2)on1
-1.3,4,·,-6,-13,-16%,O=c1[nH]cc(Cc2ccccc2)c(=O)[nH]1
-0.2,-18,-1%,-2,-16,3%,C[n+]1ccccc1/C=C/c1ccc(F)c(F)c1
-3.4,-2,0%,-14,-2,-1%,Cc1ccccc1OCCN1C(=O)NC2(CCc3ccccc32)C1=O (stereo not given)
4.4,-5,7%,-13,-6,-2%[15.4 µM],CN1/C(=C\C=Nc2cc(S(=O)(=O)N3CCOCC3)ccc2N2CCOCC2)C(C)(C)c2ccccc21
0.1,-7,-23%,2,-15,-4%,COc1cc(C(=S)N2CCOCC2)ccc1OC(=O)c1cccc(C)c1
-0.7,-16,?,-13,-9,2%,CC(CCc1ccccc1)NC(=O)C1CCCN(C(=O)c2cc3sccc3n2C)C1 (stereo not given)
